# Compound activity: PubChem, National Center for Advancing Translational Sciences (NCATS)
# Vaccinia mCherry – vaccinia inhibition (mCherry reporter). Vaccinia virus mCherry reporter infection, fluorescence; about a quarter of the inactives have no number. hit rate 0.63% among 310,000. AID 720579. Potency, µM (doses to about 36.5 µM), without a hit: at the highest dose activity change, negative = inhibition, hits mostly inhibitors; active = well fitted inhibition curve with a large enough effect; inconclusive = small, poorly fitted or top-dose-only effect; inactive = no such curve, though single readings can be large or run the other way; tested in A549 cells; also: nearly all actives have a fitted effect of over 35% in size; inactives centre near -10
# VACV Venus inh – inhibitors of vaccinia virus (Venus reporter); hit rate 0.46% among 330,000; Vaccinia virus Venus reporter expression, fluorescence; AID 720580; Potency, µM (doses to about 36.5 µM), for inactives: at the highest dose activity change, negative = inhibition, hits mostly inhibitors; active means well fitted inhibition curve with a large enough effect; inconclusive means small, poorly fitted or top-dose-only effect; inactive means no such curve, though single readings can be large or run the other way; tested in A549 cells; also: nearly all actives have a fitted effect of over 30% in size; inactives centre near -10
# The depositor's hits bear a star; i = inactive; u = inconclusive; x = no result given; & = joins results of further samples; [ ] = another dose, or the depositor's remark. % is scaled to controls: 0 for no effect and ±100 for the full control effect; potency is read from the fitted curve at half-maximal effect.
SMILES	Vaccinia mCherry	VACV Venus inh
CC(C)NC(=O)COC(=O)C1CSC2(c3ccc(Br)cc3)CCC(=O)N12 (configuration not stated)	-3%	-7%
CC1(C(=O)NS(=O)(=O)c2ccc(C#N)cc2)CCN1C(=O)C1(c2ccc(Cl)cc2)CC1 (configuration not stated)	29%	13%
COc1ccc(NC(=O)Nc2ccc3c(c2)N(C)C(=O)CS3)cc1OC	i	-4%
Cn1c(N)c(C(=O)COC(=O)[C@H](Cc2ccccc2)N2C(=O)c3ccccc3C2=O)c(=O)n(C)c1=O	i	-9%
COc1ccc(NC(=O)c2noc3c2CCCC3)cc1Cl	-4%	4%
CN(C(=O)CSc1nnn(C)n1)c1ccccc1	-1%	-1%
CCOc1ccccc1NC(=O)Cn1c(=O)n(Cc2ccco2)c(=O)c2cccnc21	-9%	-1%
CCCC1=Nc2cc(C(=O)NCCN3CCOCC3)ccc2Sc2ccccc21	-8%	-5%
c1ccc(Cc2noc(CN3CCCC(CN4CCOCC4)C3)n2)cc1 (configuration not stated)	i	-4%
COc1ccc(N2CC(NC(=O)COc3ccccc3F)CC2=O)cc1OC (configuration not stated)	-12%	-5%
Cc1ccc(C)c(S(=O)(=O)NC(CCC(N)=O)C(=O)O)c1 (configuration not stated)	-6%	5%
Cn1c(=O)oc2cc(S(=O)(=O)NCCC(=O)NCc3ccccc3Cl)ccc21	-1%	-12%
CC1(C(=O)NCc2ccccc2)Cc2c(-c3ccc(C(N)=O)cc3)ccnc2O1 (configuration not stated)	-2%	u
O=C(CN1CCN(c2nc(-c3ccc(F)cc3)cs2)CC1)Nc1ccc2c(c1)OCO2	-11%	-11%
CCOc1ccc(N(C(=O)c2ccc3c(c2)OCO3)C2C=CS(=O)(=O)C2)cc1 (configuration not stated)	-13%	-6%
C[C@H]1CN([C@@H](C)CO)C(=O)c2cc(Br)cnc2O[C@H]1CN(C)C(=O)c1ccccn1	-8%	-5%
CCOc1ccccc1-c1cc(C(=O)Nc2ccc(C(=O)O)cc2)c2ccccc2n1	-3%	-6%
COc1ccc(CN(C(=O)c2cnccn2)C(C(=O)NC(C)(C)C)c2cc(OC)c(OC)c(OC)c2)cc1 (configuration not stated)	x	u
Cc1cccc(NC(=O)CSc2nc3c(c(=O)[nH]2)CN(Cc2ccc4c(c2)OCO4)CC3)c1C	2%	16%
COc1ccc(NC(=O)c2nc[nH]c2C(=O)N[C@@H](C)C(=O)OC(C)(C)C)cc1	-2%	u
O=C(Cc1ccccc1)Nc1nc(-c2ccc(F)c(F)c2)cs1	-15%	-12%
NS(=O)(=O)c1cccc(NC(=O)c2cccnc2Oc2ccccc2)c1	i	-22%
CCCCCCC(O)(c1ccc(OC)cc1)C(CN1CCOCC1)c1ccccc1 (configuration not stated)	-3%	-16%
O=C(CCn1ccc2ccccc21)NC1CCCc2ccccc21 (configuration not stated)	x	u
COc1cccc(C2CC3(CC(C)(C)NC(=S)N3)Oc3cc(O)ccc32)c1 (configuration not stated)	-6%	-5%
Cc1cccc(C(=O)Nc2ccc(S(=O)(=O)N3CCC(c4nc5ccccc5s4)CC3)cc2)c1	-1%	-22%
Cc1ccc(S(=O)(=O)N(CC(=O)NCc2ccc(F)cc2)C(=O)N2CCN(C)CC2)cc1	-6%	-2%
O=C(CSc1ccc(Br)c2cccc(Cl)c12)Nc1ccc(S(=O)(=O)Nc2nccs2)cc1	0%	-11%
O=[N+]([O-])c1cc(C(F)(F)F)ccc1N1CCN(S(=O)(=O)c2ccc3c(c2)CCCC3)CC1	i	-12%
COc1cccc(OC)c1C(=O)N1CCN(Cc2ccncc2)CC1	-21%	-17%

# Compound profiles, from the list above:
# Record of COc1cccc(OC)c1C(=O)N1CCN(Cc2ccncc2)CC1 = Vaccinia mCherry: -21%; VACV Venus inh: -17%
# Record of COc1cccc(C2CC3(CC(C)(C)NC(=S)N3)Oc3cc(O)ccc32)c1 (configuration not stated) = Vaccinia mCherry: -6%; VACV Venus inh: -5%

# (cont.)
SMILES	Vaccinia mCherry	VACV Venus inh
Cc1ccc(NCC(=O)N/N=C/c2ccc(C(=O)O)cc2)cc1	-9%	-12%
FC(F)(F)c1cnc(NNC(=S)Nc2cccnc2)c(Cl)c1	10µM*	u
COc1cccc(/C=C/C(=O)OCC(=O)N2c3ccccc3NC(=O)C2(C)C)c1	i	-9%
Cc1nnc(OC(C)C)c2nn(-c3ccccc3F)c(C)c12	x	-8%
O=C(C1CCC(=O)N(C2CCCC2)C1)N1CCC(Oc2ccccc2Cl)CC1 (configuration not stated)	-3%	-15%
COC(=O)c1ccc(NC(=O)c2ccccc2C(=O)Nc2ccc(C(=O)OC)cc2)cc1	i	-10%
O=C(OCCOCn1cc(Br)c(=O)[nH]c1=O)c1ccccc1	-13%[7.34 µM]	-15%[7.34 µM]
CCN(CC)c1ccc(NC(=O)CN2CCN(CC(=O)Nc3ccc(Cl)cc3)CC2)cc1	-15%	-8%
Cc1cc2cc(CNC(=S)Nc3ccc(OC(F)F)cc3)ccc2n1C	-6%	-28%
O=S1(=O)NC(=NCCc2ccccn2)c2ccccc21	-1%	-9%
CCOC(=O)Cn1c(=O)oc2cc(S(=O)(=O)N3CCN(c4ccc(Cl)cc4)CC3)ccc21	-2%	-7%
Fc1ccccc1N=C1Nc2cccc3cccc1c23	-23%	-29%
COc1cc2[nH]c(O)c(C=O)c2cc1OC	-26%	-6%
CCCCS(=O)(=O)c1oc(-c2cccs2)nc1S(=O)(=O)c1ccc(F)cc1	-15%[7.34 µM]	-11%[7.34 µM]
CCc1[nH]nc(C(=O)N2CCCC(CCC(=O)N3CCN(c4ccccn4)CC3)C2)c1C (configuration not stated)	2%	-4%
CCOc1ccc(C2C(C(=O)OC)=C(C)NC3=C2C(=O)c2ccccc23)cc1OC (configuration not stated)	2%	0%
COc1ccc(S(=O)(=O)c2cn(C)c3cc(N4CCCCCC4)c(F)cc3c2=O)cc1	u	-29%
CCN1CCN(C(c2cccc(F)c2)c2c(O)cc(C)n(CCOC)c2=O)CC1 (configuration not stated)	-15%	-9%
Cc1ccc(NC(=O)CCc2nnc3ccc(NCc4ccco4)nn23)nc1	-12%	-15%
COc1cccc(C(=O)NC2CC(C)(C)NC(C)(C)C2)c1OC	-5%	-8%
CCCCCN(C(=O)CCC(=O)OCC(=O)Nc1ccc(C)cc1F)c1c(N)n(CCCC)c(=O)[nH]c1=O	-18%	-12%
CCCc1n(CC(O)COCC2CC=CCC2)c2ccccc2[n+]1C (configuration not stated)	0%	-9%
O=c1oc2ccccc2c(O)c1/C=N/c1ccccn1	x	-26%
CCOC(=O)C1=CC[C@@H](c2cccc(Br)c2)N(S(=O)(=O)c2ccc(F)cc2)[C@H]1c1cccc(Cl)c1	u	-9%
CC(=O)Nc1cccc(-c2nnc(SCC(=O)c3ccc([N+](=O)[O-])cc3)o2)c1	-22%	-8%
Cc1c(NC(=O)c2ccc3c(c2)C(=O)N(Cc2ccco2)C3=O)cccc1C(=O)O	i	-4%
Cc1cc(C)cc(NC(=O)CCc2c(C)nn(-c3ccc(N4CCOCC4)nn3)c2C)c1	-8%	-4%
COc1cc(Cn2c3ccc(NC(=O)CCc4cccnc4)cc3c(=O)n2C)ccc1F	20%	-18%
Cc1ccc(OCC(=O)N/N=C2/SCC(=O)N2Cc2ccccc2)cc1	i	-6%
Cc1ccc2c(c1)N(C(=O)Nc1cccc(C)c1C)CCO2	-19%	-15%

# Looked up one by one from the list above (5):
SMILES	Vaccinia mCherry	VACV Venus inh
CCc1[nH]nc(C(=O)N2CCCC(CCC(=O)N3CCN(c4ccccn4)CC3)C2)c1C (configuration not stated)	2%	-4%
CCN(CC)c1ccc(NC(=O)CN2CCN(CC(=O)Nc3ccc(Cl)cc3)CC2)cc1	-15%	-8%
CC(=O)Nc1cccc(-c2nnc(SCC(=O)c3ccc([N+](=O)[O-])cc3)o2)c1	-22%	-8%
COC(=O)c1ccc(NC(=O)c2ccccc2C(=O)Nc2ccc(C(=O)OC)cc2)cc1	i	-10%
O=C(OCCOCn1cc(Br)c(=O)[nH]c1=O)c1ccccc1	-13%[7.34 µM]	-15%[7.34 µM]

# The listing picks up, starting four compounds before the break.
Cc1cc(C)cc(NC(=O)CCc2c(C)nn(-c3ccc(N4CCOCC4)nn3)c2C)c1
  Vaccinia mCherry: -8%
  VACV Venus inh: -4%
COc1cc(Cn2c3ccc(NC(=O)CCc4cccnc4)cc3c(=O)n2C)ccc1F
  Vaccinia mCherry: 20%
  VACV Venus inh: -18%
Cc1ccc(OCC(=O)N/N=C2/SCC(=O)N2Cc2ccccc2)cc1
  Vaccinia mCherry: i
  VACV Venus inh: -6%
Cc1ccc2c(c1)N(C(=O)Nc1cccc(C)c1C)CCO2
  Vaccinia mCherry: -19%
  VACV Venus inh: -15%
CC1(C)Cc2c(sc3nc(-c4ccccc4)oc(=O)c23)CO1
  Vaccinia mCherry: i
  VACV Venus inh: -10%
O=C(COC(=O)CNC(=O)c1ccccc1F)Nc1ccc2[nH]c(=O)[nH]c2c1
  Vaccinia mCherry: -8%
  VACV Venus inh: -3%
COCCNC(=O)C(=O)N/N=C(\C)CC(=O)Nc1ccc2c(c1)OCO2
  Vaccinia mCherry: -1%
  VACV Venus inh: -2%
O=C(Nc1ncccc1O)c1ccc(S(=O)(=O)N2CCCCCC2)cc1
  Vaccinia mCherry: i
  VACV Venus inh: -9%
COc1ccc(C(C(=O)NC2CCCCC2)N(C(=O)c2sc(C)nc2C)c2ccc(C(C)=O)cc2)cc1 (configuration not stated)
  Vaccinia mCherry: i
  VACV Venus inh: -7%
C=CCn1c(=NC(=O)CN2C(=O)CCC2=O)sc2cc(S(N)(=O)=O)ccc21
  Vaccinia mCherry: -10%
  VACV Venus inh: -21%
CCCCC[C@H]1CN(CCc2ccccc2)C(=O)[C@@H]1CC(=O)NCc1ccc(OC)cc1
  Vaccinia mCherry: u
  VACV Venus inh: -21%&-14%
Brc1cc2c(cc1Br)OCCOCCOCCO2
  Vaccinia mCherry: -24%
  VACV Venus inh: -13%
CCC(C)NC(=O)c1ccc2c(c1)S(=O)(=O)c1ccccc1C2=O (configuration not stated)
  Vaccinia mCherry: -15%
  VACV Venus inh: -11%
COc1ccccc1Cn1c(=S)[nH]c2cc(C(=O)N3CCN(C)CC3)ccc2c1=O
  Vaccinia mCherry: -17%
  VACV Venus inh: -10%
O=C(NNC(=O)c1ccco1)Nc1ccccc1
  Vaccinia mCherry: i
  VACV Venus inh: -11%
CCCc1nc2n[nH]c(N)c2c2c1CCCC2
  Vaccinia mCherry: i
  VACV Venus inh: -13%
Cn1c(-c2sccc2OCc2cccc(C(F)(F)F)c2)n[nH]c1=S
  Vaccinia mCherry: -5%
  VACV Venus inh: -5%
CC(=O)C[C@H](O)CC(=O)[C@H]1OC(=O)CC/C=C\Cc2ccccc21
  Vaccinia mCherry: i
  VACV Venus inh: -8%
COc1ccc(N2C(=O)CSC23C(=O)N(Cc2ccc(C)cc2)c2ccccc23)cc1Cl (configuration not stated)
  Vaccinia mCherry: -16%
  VACV Venus inh: -3%

CCN(Cc1ccccc1)C(=O)c1cc(COc2c(F)cccc2F)on1
  Vaccinia mCherry: u
  VACV Venus inh: -18%
O=C(CCNC(=O)c1ccco1)NCc1ccccc1
  Vaccinia mCherry: x
  VACV Venus inh: -11%
CCn1c2ccccc2c2cc(NC(=O)c3cc(OC)c(OC)c(OC)c3)ccc21
  Vaccinia mCherry: u
  VACV Venus inh: u
COc1ccc(CCNC(=O)CCc2c(C)c3cc4c(C)coc4c(C)c3oc2=O)cc1OC
  Vaccinia mCherry: -16%
  VACV Venus inh: -10%
COC(=O)c1ccc(CSc2nnc(C)n2N)o1
  Vaccinia mCherry: -13%
  VACV Venus inh: -10%
COc1cccc(N2CC(NS(=O)(=O)c3cccs3)CC2=O)c1 (configuration not stated)
  Vaccinia mCherry: -25%
  VACV Venus inh: -13%
COc1ccccc1Nc1c2c(nc3ccccc13)CCC2
  Vaccinia mCherry: u
  VACV Venus inh: -27%
Cc1cccc(OCCn2c(S(=O)(=O)O)nc3ccccc32)c1
  Vaccinia mCherry: -1%
  VACV Venus inh: -22%
COc1ccc(-n2nc(C(=O)N3CCN(c4ccc(F)cc4)CC3)c3c4ccccc4n(C)c3c2=O)cc1
  Vaccinia mCherry: -4%
  VACV Venus inh: -1%
Cc1ccccc1C(=O)NCc1nc2cccnc2n1Cc1ccccc1
  Vaccinia mCherry: -8%
  VACV Venus inh: -6%
NNC(=O)c1ccc(Cl)cc1
  Vaccinia mCherry: -13%
  VACV Venus inh: -4%
COC(=O)c1cc(C(=O)OC)[nH]n1
  Vaccinia mCherry: -16%
  VACV Venus inh: -6%
O=C(Nc1ccc(N2CCOCC2)cc1N1CCOCC1)c1ccccc1
  Vaccinia mCherry: -15%
  VACV Venus inh: 5%
